# Resorufin autofl – resorufin region autofluorescence; Compound fluorescence, resorufin region 547/598 nm, buffer; active compounds read high; max dye-equivalent concentration, M; 59,000 tested, 0.04% active; AID 588; active = above 10 nM dye equivalent; inconclusive = 1 to 10 nM; inactive = 1 nM or less; a few of its hits are not listed in these tables; further: highest value over a series up to 38 µM
#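 Compounds in 100 mM Tris buffer, pH 8.0, incubated 15 min at room temperature, then read with 547 nm excitation and 598 nm emission filters. Fluorescence was converted to dye-equivalent concentration using an on-plate six-point resorufin standard curve.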
# TSHR ag – agonists of human thyroid stimulating hormone receptor | AID 926 | 73,000 tested, 0.48% active | Potency, µM (series often up to 57.1 µM), without a hit: top-dose activation, usual class: activators | HEK293-CNG-TSHR cells (CNG channel as cAMP sensor), membrane potential dye, cAMP | P16473; active = well fitted activation curve of enough size with the parental cells flat; inconclusive = any curve in the parental cells; inactive = parental cells flat and receptor cells flat or falling; further: potency means the concentration at half of the fitted maximal effect; % of control where 0% means no effect; weak receptor curves with flat parental cells got no call and are not listed
# Target sequence (P16473 whole entry, looked up): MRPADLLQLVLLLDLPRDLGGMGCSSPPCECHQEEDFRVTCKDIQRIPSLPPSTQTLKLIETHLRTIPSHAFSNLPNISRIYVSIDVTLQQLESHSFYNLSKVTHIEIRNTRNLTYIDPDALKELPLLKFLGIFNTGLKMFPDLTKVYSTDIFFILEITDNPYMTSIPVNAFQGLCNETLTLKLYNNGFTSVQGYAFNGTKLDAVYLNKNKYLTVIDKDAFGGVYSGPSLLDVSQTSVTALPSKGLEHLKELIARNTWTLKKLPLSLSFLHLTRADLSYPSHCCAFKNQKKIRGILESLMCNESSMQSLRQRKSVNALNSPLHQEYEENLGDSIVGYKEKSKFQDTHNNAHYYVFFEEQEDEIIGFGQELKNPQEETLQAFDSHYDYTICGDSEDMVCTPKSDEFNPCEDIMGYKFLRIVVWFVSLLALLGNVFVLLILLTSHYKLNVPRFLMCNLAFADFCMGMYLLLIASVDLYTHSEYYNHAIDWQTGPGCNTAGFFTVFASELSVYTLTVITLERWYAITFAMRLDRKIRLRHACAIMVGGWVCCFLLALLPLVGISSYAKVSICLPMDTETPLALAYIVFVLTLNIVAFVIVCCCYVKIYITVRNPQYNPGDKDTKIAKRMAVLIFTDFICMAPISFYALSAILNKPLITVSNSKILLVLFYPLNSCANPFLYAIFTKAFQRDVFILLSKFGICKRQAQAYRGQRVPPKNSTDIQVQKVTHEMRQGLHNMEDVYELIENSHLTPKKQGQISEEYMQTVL
#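 HEK 293 cells stably expressing TSHR and a cAMP-gated CNG channel; parental CNG-only cells as counterscreen. Cells preloaded 60 min with membrane potential dye plus 100 uM RO 20-1724, then compound 30 min; fluorescence read at 590 nm.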
# A647 autofl – compound fluoresces in the A647 spectral region; Compound fluorescence, A647 channel (570/671 nm), Tris buffer; max dye-equivalent concentration, M; 59,000 tested, under 10 active; active means above 1 µM dye equivalent; inconclusive means 0.1 to 1 µM; inactive means 0.1 µM or less;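 further: values scaled relative to a standard on each plate; highest value over a series up to 38 µM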
#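 Compounds pinned into 100 mM Tris pH 8.0, 15 min at room temperature, then read with 570 nm excitation/671 nm emission filters. Fluorescence normalized to an on-plate six-point Alexa 647 standard curve, giving dye-equivalent concentration per compound concentration.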
# AID923 – qHTS Assay for Allosteric/Competitive Inhibitors of Caspase-1: Spectroscopic Profiling in AFC Spectral Region. compound fluorescence, AFC spectral region (405/520 nm); almost no hit is shown here. Potency, µM (titrated, usually from 57.5 µM), for inactives: at the top dose fluorescence increase, hits mostly activators. 75,000 tested, 1.1% active. AID 923, 2007; active means well fitted activation curve with a large enough effect; inconclusive means small, poorly fitted or top-dose-only effect;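 further: potency means the concentration at half of the fitted maximal effect; 0% is about no effect; scaled to a free AFC standard on each plate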
#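 Titrations up to 57 uM read every 20 sec for 3 min (405/520 nm) with 50 nM caspase 1 and 5 uM Ac-WEHD-AFC, pH 7.5 HEPES buffer. Fluorescence-vs-time intercept gave baseline, scaled against on-plate AFC standard.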
# A488 fluor – compound autofluorescence in A488 spectral region; AID 591; 59,000 tested, 0.1% active; compound autofluorescence, A488 spectral region, dye equivalency; active compounds read high; max dye equivalency, M; active = above 10 nM dye equivalent; inconclusive = 1 to 10 nM; inactive = 1 nM or less; about half of its hits are not listed in these tables;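 further: highest value over a series up to 38 µM; compound alone in buffer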
#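 Spectroscopic profiling in the A488 region: compounds in pH 8.0 Tris (100 mM), 15 min RT, CCD imaging with 480 nm excitation and 540 nm emission; responses normalized against A488 dye standards.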
# An asterisk follows results filed as active; i = inactive; ? = inconclusive; . = not tested or not shown; [ ] = another dose, or the depositor's remark.
SMILES,Resorufin autofl,TSHR ag,A647 autofl,AID923,A488 fluor
CCC(C)(C)n1nnnc1C(c1cc2cccc(C)c2[nH]c1=O)N1CCCC1 (centres undefined),i,21.5%,4.5e-09,4.7%,i
Nc1cc(C(=O)OCC(=O)N2CCCC2)ccc1Cl,i,3.3%,1e-09,0.2%,i
COC(=O)NC(c1cccc(F)c1)[C@]1(C(C)=O)CCCC1=O (some centres undefined),.,-2.0%[11.4 µM],.,3.9%[11.5 µM],.
OC(COc1c(Br)cc(Br)cc1Br)CN1CCOCC1 (centres undefined),i,?,1e-09,2.4%,i
CCOC(=O)c1c(C)n(C)c2cc(OCCN(CC)CC)ccc12,i,13.0%,1e-09,-1.1%,i
CCC(=O)Nc1ccc(-c2nnc(-c3ccccc3)o2)cc1,i,.,1.6e-09,.,i
COC(=O)c1ccc(N2CCN(C)CC2)c(NC(=O)c2cc3ccccc3o2)c1,i,?,1.43e-08,-2.2%,i
COC(=O)c1c(NC(=O)CSc2nc3c(c(=O)n(C)c(=O)n3C)n2C(C)C)sc(C)c1C,i,10.1%,1e-09,1.7%,i
O=C(NCc1ccccc1)C1CCCN(C(=O)Nc2ccccc2)C1 (centres undefined),i,7.5%,2.63e-08,0.2%,i
CCOc1ccc(OCC)c(NC(=O)CC2Oc3ccccc3NC2=O)c1 (centres undefined),.,1.6%,.,-1.4%,.
COc1ccccc1NC(=O)N1CCCC1C(=O)NCc1ccccc1 (centres undefined),i,-1.7%,1e-09,1.8%,i
COCC(=O)N(Cc1cc2cc(OC)ccc2[nH]c1=O)c1ccccc1,i,-65.9%[inhibitor],6.1e-09,0.3%,i
O=C(NCCC1=CCCCC1)C1CCN(C(=O)Nc2ccccc2)CC1,i,-2.8%,1e-09,0.2%,i
COc1cccc(N2CCN(C3CCCC(C)C3)CC2)c1 (centres undefined),i,?,1e-09,-1.6%,i
COc1ccc(C(C)NC(=O)C2CCCO2)cc1OC (centres undefined),i,1.8%,1.3e-09,-0.3%,i
Cc1ccc(Cl)cc1N1CCN(C(=O)c2ccc(CN3CCOCC3)cc2)CC1,i,.,6e-09,-2.7%,i
CC1(C)Cc2c(c(-c3ccccc3)nc3[nH][nH]c(=O)c23)CO1,i,.,3.87e-08,.,i
COc1ccc(OC)c(C2=NOC(C(=O)NCCN3CCOCC3)C2)c1 (centres undefined),i,-0.9%,7.1e-09,-0.3%,i
CCCCN(CCCC)CCC(O)c1cc2c(Cl)cc(Cl)cc2c2cc(C(F)(F)F)ccc12 (centres undefined),i,-2.8%[25.6 µM],2.8e-09,1.1%[25.7 µM],i
CN(c1ccccc1C(=O)N1CCc2ccccc2C1)S(C)(=O)=O,i,.,2e-09,-2.3%,i
C=CCn1c(Cc2ccc(OC(C)C)c(Cl)c2)nnc1SCC(N)=O,i,13.0%,3.55e-08,-2.3%,i
O=C(CCN1C(=O)C2C3C=CC(C3)C2C1=O)NCCc1ccccc1Cl (centres undefined),i,1.4%,6.2e-09,0.5%,i
N#Cc1cccc(NC(=O)N2CC3(CCN(C(=O)c4cc(C(F)(F)F)cc(C(F)(F)F)c4)CC3)C2)c1,i,-2.1%,8.6e-09,1.2%,i
COc1ccc(C(=O)n2nnc3ccccc32)cc1Br,i,14.9%,1e-09,-1.6%,i
CCOc1ccc(N(CC(=O)O)S(=O)(=O)c2ccc(OC)c(OC)c2)cc1,.,4.7%,.,3.2%,.
O=c1n(Cc2ccccc2Cl)c2sc3c(c2c2ncnn12)CCCC3,i,20µM*,1.84e-08,-0.9%,i
CC(=O)N1CCC2(CC1)CN(Cc1ccc(C#N)cc1)C2,i,2.9%,1.6e-09,3.3%,i
O=C(O)c1ccccc1N[C@H](c1ccccc1)c1ccc2cccnc2c1O,i,0.3%[11.4 µM],2.52e-08,-0.8%[11.5 µM],i
O=C(NCc1cccs1)C(Cc1ccccc1)NS(=O)(=O)c1cccs1 (centres undefined),i,.,3.2e-09,1.0%,i
CCS(=O)(=O)N1CCCC(C(=O)NC2CCCC2)C1 (centres undefined),i,4.2%,1.19e-08,-0.5%,i
CN1C[C@H](C(=O)N[C@]2(C)O[C@@]3(O)[C@H]4CCCN4C(=O)[C@@H](Cc4ccccc4)N3C2=O)C[C@H]2c3cccc4[nH]cc(c34)C[C@@H]21,i,-10.3%,2.8e-09,.,i
CCc1c(C)nc2ncnn2c1N1CCC(C(=O)N2CCN(c3ccccc3)CC2)CC1,i,5.6%,8.8e-09,-1.4%,i
COc1ncc2nc(-c3cn(C)c4ccccc34)c(=O)n(C)c2n1,i,1.6%,1e-09,14.0%,i
Cn1cccc1C(=O)N1CCC2(CCN(C(=O)Nc3ccccc3)CC2)CC1,i,-1.3%,1.85e-08,0.9%,i
CC(=O)c1ccc(OCC(O)CN2CCOCC2)cc1 (centres undefined),.,-0.4%,.,1.9%,.
CC(=O)c1cn(CC(=O)NCc2cccnc2)c2ccccc12,i,.,1.87e-08,-0.4%,i
Cc1ccc2c(CC(=O)NC3=NCCS3)coc2c1,i,6.7%,4.49e-08,0.1%,i
c1ccc(N2CCN(C3CCSC3)CC2)cc1 (centres undefined),.,2.6%,.,-0.9%,.
Nc1nc(SCC(=O)NCC2CCCO2)n[nH]1 (centres undefined),i,-10.3%,1e-09,-1.8%,i
O=S(=O)(Cc1ccccc1)N1CCN(C/C=C/c2ccccc2)CC1,i,7.6%,1e-09,0.8%,i
N#Cc1c(N)nc2c(c1-c1ccncc1)CCCC2,i,7.7%,4.95e-08,-0.7%,i
COCCn1c(-c2ccc(OC)cc2)cnc1N,i,-0.9%,1.08e-08,1.1%,i
NCCOB(c1ccccc1)c1ccccc1,.,?,.,-4.3%,.
COc1c(Cl)cc(-c2noc(C)c2C(=O)NC(C)C)cc1Cl,.,21.3%,.,-2.2%,.
CN(C)S(=O)(=O)c1ccc(NC(=O)c2cc3ccccc3o2)cc1,i,5.2%[11.4 µM],6.9e-09,4.1%,i
CCOC(=O)CC1C(=O)NCCN1C(=O)Nc1ccccc1 (centres undefined),i,1.7%,1e-09,-0.8%,i
COC(=O)CSc1nnc2c3c4c(sc3nc(-n3nc(C)cc3C)n12)COC(C)(C)C4,i,13.6%,1.2e-08,0.0%,i
COc1cccc(OC)c1OCCCSc1nc(C)cc(=O)[nH]1,i,14.1%,2.8e-09,0.5%,i
COc1cccc(NS(=O)(=O)c2c(C)cc(C)cc2C)c1,.,?,.,1.4%,.
Cc1c(NC(=O)CN2CC(C)OC(C)C2)c(=O)n(-c2ccccc2)n1C (centres undefined),i,-3.3%,6.8e-09,-3.2%,i
CCOCCCNC(=O)C(c1ccc(Cl)cc1)N1CCN(C(=O)c2ccco2)CC1 (centres undefined),i,10.8%,5.7e-09,-1.6%,i
CN(C(=O)CSc1nnnn1-c1ccccc1)C1CCCCC1,i,2.8%,2.59e-08,-1.3%,i
CCCN1CCN(C(=O)C2CCN(S(=O)(=O)c3ccc4c(c3)oc(=O)n4C)CC2)CC1,.,-3.7%,.,-0.8%,.
CCOC(=O)NC1(C(F)(F)F)C(=O)NC(C)=C1C#N (centres undefined),i,.,2e-09,.,i
CC(=O)c1c(C)[nH]c(C(=O)NCc2ccccn2)c1C,i,-9.0%,7.2e-09,-1.0%,i
Cc1cc(OCC(=O)NCCO)ccc1Cl,.,19.9%,.,-1.1%,.
CCN(CC)C(=O)C1CCN(S(=O)(=O)c2ccc(C3CNC(=O)C3)cc2)CC1 (centres undefined),.,7.9%,.,0.2%,.
Cc1ccc(CNC(=O)c2coc(=O)c3ccccc23)o1,i,2.6%[11.4 µM],2.48e-08,1.4%,i
CCc1cc2c(=O)c(-n3cnc4ccccc43)coc2cc1O,i,-3.2%,1e-09,15.0%,i
CCCCCCN1Cc2ccccc2C1,i,11.7%,1.07e-08,-2.0%,i
# (listing goes on)
SMILES,Resorufin autofl,TSHR ag,A647 autofl,AID923,A488 fluor
C[n+]1cnn2c1SCC1(COC1)C2,i,29.9%,1e-09,-0.3%,i
O=C1CN(C(=O)CN2CCCC2)C(c2ccccc2)c2cc(Br)ccc2N1 (centres undefined),i,6.5%,1e-09,2.0%,i
COc1cc(/C=N/n2cnnc2)ccc1OC(=O)c1cccnc1,.,-3.5%,.,2.6%,.
CCOC(=O)CNC(=O)CSc1nc2nc(C)c(Br)cc2[nH]1,i,1.7%,1e-09,3.5%,i
O=c1[nH]c2ccccc2c2nc3ccccn3c12,i,-2.1%,3.07e-08,-1.5%,i
O=C(NC1CCCCCCC1)C1=COCCO1,i,-4.6%,3e-09,0.0%,i
Cc1ccc2c(c1)N(CCC(=O)NCCN1CCOCC1)C(=O)CO2,i,2.0%,1e-09,1.0%,i
CNc1nc(-c2ccccc2OC)nc2ccccc12,i,?,1e-09,0.0%,i
COCCCNc1nc2c(c(=O)[nH]c(=O)n2C)n1CCCc1ccccc1,i,-8.1%,7.1e-09,-0.1%,i
CCC(C)NC(=O)CS(=O)Cc1nc(-c2ccccc2C)oc1C (centres undefined),.,0.4%,.,-1.7%,.
CC(C)[C@H](NC(=O)NCc1cccs1)C(=O)O,i,2.5%,1e-09,-0.3%,i
O=C(COc1ccccc1O)c1cccs1,i,-1.6%,1.59e-08,0.7%,i
CCCCN(C)C(=O)CCC(=O)Nc1ccc2nc(N3CCOCC3)cc(C)c2c1,i,0.8%,1.9e-09,-0.4%,i
Cc1cccc2cc(C#N)c(NCCNC(=O)NC3CCCCC3)nc12,i,?,3.94e-08,14.9%,i
CN(C)S(=O)(=O)N(CC(=O)N1CCOCC1)c1ccccc1,.,-1.3%,.,-0.6%,.
CCN(CC)S(=O)(=O)c1cccc(C(=O)OCC(=O)N2CC(=O)Nc3ccccc32)c1,i,0.8%,2.1e-08,-1.7%,i
COc1cccc(C2=CC(c3ccc(OC)c(OC)c3OC)n3nnnc3N2)c1 (centres undefined),i,.,1.21e-08,3.2%,i
COc1cccc(NC(=O)CSCc2n[nH]c(=O)[nH]2)c1,i,14.9%,5.31e-08,-0.2%,i
C=CCn1c(SCC(=O)c2ccc(OC)cc2)nnc1-c1cc2cccc(OC)c2o1,i,?,1e-09,1.0%,i
C[N+](C)(C)c1nc(N)nc2c1ncn2[C@H]1O[C@@H](CO)[C@@H](O)[C@H]1O,i,1.6%[11.4 µM],2.13e-08,0.1%[11.5 µM],i

# The list goes on; it opens with the 4 that closed the last part.
SMILES,Resorufin autofl,TSHR ag,A647 autofl,AID923,A488 fluor
COc1cccc(C2=CC(c3ccc(OC)c(OC)c3OC)n3nnnc3N2)c1 (centres undefined),i,.,1.21e-08,3.2%,i
COc1cccc(NC(=O)CSCc2n[nH]c(=O)[nH]2)c1,i,14.9%,5.31e-08,-0.2%,i
C=CCn1c(SCC(=O)c2ccc(OC)cc2)nnc1-c1cc2cccc(OC)c2o1,i,?,1e-09,1.0%,i
C[N+](C)(C)c1nc(N)nc2c1ncn2[C@H]1O[C@@H](CO)[C@@H](O)[C@H]1O,i,1.6%[11.4 µM],2.13e-08,0.1%[11.5 µM],i
CCCc1cc(=O)[nH]c(SCC(N)=O)n1,i,-0.5%,1.78e-08,-0.1%,i
O=C(CSc1nnc(-c2cccs2)o1)NCC1CN(Cc2ccccc2)CCO1 (centres undefined),i,12.2%,9.8e-09,-2.3%,i
CCS(=O)(=O)N1CCN(Cc2ccncc2)CC1,i,0.5%,1.5e-09,0.9%,i
Cc1ccccc1Cn1cc(NC(=O)c2cc3nc(-c4ccco4)cc(C(F)(F)F)n3n2)cn1,i,-8.7%,4.79e-08,15.7%,i
CCCc1cc(-c2nc(N)ncc2-c2ccc3c(c2)OCCCO3)c(O)cc1OC,i,.,5.4e-09,.,i

# The list is partial, so the mix of outcomes need not match the whole.
